VCAM-1 rise: boosters of cytokine-driven VCAM-1 levels – cell-based, plate reader, pooled HUVEC, TNFa stimulus (AID 455); HUVEC TNFa-induced VCAM-1 immunofluorescence, plate reader; numbers were filed only for top-ranked candidate wells; augmentation, % at 5 µM; actives 0.2% (n = 10,000);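 active = a compound raising TNF-alpha-driven VCAM-1 surface staining, with its hit status upheld on visual or statistical review; inactive = the rest, including hits rejected on review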;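 note: 0% = TNFa with vehicle and 100% = strongest image-checked hit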
26S disassembly: blocks ATP-dependent breakdown of the yeast 26S proteasome; anti-FLAG beads, GFP-proteasome disassembly, flow cytometry; inhibition of disassembly, % (test concentration not listed); actives 0.2% (n = 24,000);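 active = above 40%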;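 note: plate controls were ATP control with full disassembly for no effect and ATP-gamma-S intact proteasomes for full effect; higher percent means more bead fluorescence retained so stronger block of disassembly; stock transfer was 100 nL into about 10 µL; wells with too few beads may also be inconclusive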
Numbers without * were called inactive; i = inactive; x = no result given. A portion of the library; the hit share may differ from the screen's.

| mol | 26S disassembly | VCAM-1 rise |
| --- | --- | --- |
| CCOC(=O)C1CCN(C(=O)COc2ccc(Cl)cc2Cl)CC1 | 0.2 | i |
| O=C(O)c1ccccc1C(=O)Nc1n[nH]c(=S)s1 | -1.9 | x |
| COc1ccc(C2=NOC(C(=O)NCc3ccc(F)cc3)C2)cc1OC (configuration not stated) | 2.3 | i |
| CC(=O)OC(C)C[N+](C)(C)C (configuration not stated) | -0.1 | i |
| CN(CCNC(=O)CN1CCN(Cc2ccccc2Cl)C1=O)Cc1ccccc1 | -1.1 | x |
| O=P(c1ccccc1)(c1ccccc1)C(c1ccco1)N1CCOCC1 (configuration not stated) | -2.2 | x |
| Cc1ccc(N2C(=O)c3ccccc3C2Nc2ccccc2F)nc1 (configuration not stated) | 0.6 | x |
| O=C1C(O)CC2c3ccccc3CC3(CCCC3)N12 (configuration not stated) | 0.3 | x |
| Cc1ccc(C2C3=C(CC(C)(C)CC3=O)N(CCN3CCOCC3)C3=C2C(=O)CC(C)(C)C3)cc1 | 1.2 | x |
| CC1CCCCC1NC(=O)c1nn(C)c(=O)c2ccccc12 (configuration not stated) | -2.0 | i |
| CCOC(=O)C1CCN(C(=O)c2cc3c(-c4ccc(OC)c(OC)c4)nn(C)c3s2)CC1 | 1.3 | x |
| COc1ccc(-c2nc(-c3ccc(Br)o3)no2)cc1OC | -0.2 | x |
| CCOC(=O)c1cccc(NC(=O)CN(c2ccc(OC)cc2)S(=O)(=O)c2c(C)noc2C)c1 | 0.6 | x |
| CCOc1cc(NC(=O)c2ccco2)c(OCC)cc1NC(=O)COc1ccccc1C | 0.0 | i |
| CC1=C(C(=O)Nc2cc(-c3cccc(F)c3)[nH]n2)C2(CCCCC2)OC1=O | 0.3 | x |

Molecules above containing sulfur, in the order listed:
| mol | 26S disassembly | VCAM-1 rise |
| --- | --- | --- |
| O=C(O)c1ccccc1C(=O)Nc1n[nH]c(=S)s1 | -1.9 | x |
| CCOC(=O)C1CCN(C(=O)c2cc3c(-c4ccc(OC)c(OC)c4)nn(C)c3s2)CC1 | 1.3 | x |
| CCOC(=O)c1cccc(NC(=O)CN(c2ccc(OC)cc2)S(=O)(=O)c2c(C)noc2C)c1 | 0.6 | x |

Later entries:
| mol | 26S disassembly | VCAM-1 rise |
| --- | --- | --- |
| COc1cccc(N2C(N)=NC(N)=NC2(C)C)c1 | -1.0 | x |
| COC(=O)C1=C(C)NC(=O)C1(NC(=O)CN1CCCC1=O)C(F)(F)F (configuration not stated) | 0.9 | i |
| CCOC(=O)N1CCN(C(=O)CCCn2nc(C)c3sc4ccccc4c3c2=O)CC1 | 0.7 | x |
| Cc1ccccc1-c1nc(CS(=O)(=O)CC(=O)NCc2ccccc2)c(C)o1 | 0.3 | i |
| CCOc1ccccc1N(CC(=O)N1CCCCCC1)S(C)(=O)=O | 1.2 | i |
| O=c1[nH]ncc2c3ccccc3n(Cc3ccccc3F)c12 | 0.2 | x |
| COc1ccc2c(c1)C(C)=CC(C)(C)N2C(=O)C(C)N1C(=O)c2ccccc2C1=O (configuration not stated) | -1.4 | i |
| CCOC(=O)C1CCCN(C(=O)CNC(=O)Cn2ccc3ccccc3c2=O)C1 (configuration not stated) | -0.9 | x |
| Cc1cc(C(=O)Nc2cccnc2)on1 | -3.6 | x |
| COc1cccc(N2CCN(C(=O)C3CCCN(S(=O)(=O)c4cnc[nH]4)C3)CC2)c1 (configuration not stated) | 0.6 | x |
| CCC(C)(C(=O)NC1CCCC1)N(CC1CCCO1)C(=O)CNC(=O)c1ccccc1 (configuration not stated) | -0.3 | x |
| Clc1ccc(Cn2cccc2C2=NCCO2)cc1 | 0.5 | x |
| COc1ccc(C2CC(c3ccc(Cl)cc3)Nc3nc(NC(=O)c4ccco4)nn32)cc1 (configuration not stated) | 1.1 | i |
| Cc1nn(C)c(C)c1S(=O)(=O)N(CC(=O)Nc1ccccn1)c1ccc(C(C)C)cc1 | 2.2 | x |
| O=C(NCc1cccnc1)c1cnn2ccccc12 | -1.5 | x |
| O=C(Nc1c2c(nn1-c1ccc(F)cc1)CSC2)c1ccc(S(=O)(=O)N2CCOCC2)cc1 | 0.0 | x |
| CC(=O)N1CN(C2CCCC2)Cc2c1sc1c2CCCC1 | 0.5 | i |
| O=C(CSc1nc2sc3c(c2c(=O)n1-c1ccccc1)CCCC3)NCc1ccco1 | -0.3 | x |
| CC1CCN(c2nc3ccc(C(=O)O)cc3s2)CC1 | -0.3 | x |
| CCC(C)NC(=O)CSC1=Nc2ccccc2C2=NC(CC(=O)NCc3ccc(F)cc3)C(=O)N12 (configuration not stated) | 1.5 | x |
| COc1ccc(CCNC(=O)c2[nH]c(C)c(C(C)=O)c2C)cc1OC | -0.3 | x |
| COc1ccccc1OCc1nc(C#N)c(N2CC(C)CC(C)C2)o1 (configuration not stated) | 2.0 | x |
| CCOC(=O)c1sc(NC(=O)CSc2nnc(-c3ccc(OC)cc3)n2CCOC)nc1C | -1.0 | i |
| Cc1cc(C)n(Cc2ccc(F)cc2)c(=O)c1C#N | 0.0 | x |
| CCC(=O)Nc1cc2nn(-c3ccccc3)nc2cc1Cl | 1.1 | i |
| CCCCC(=O)Nc1ccc(NC(=O)C2CC2)nc1 | 1.0 | i |
| COC(=O)Nc1nc2ccc(Sc3ccccc3)cc2[nH]1 | -0.5 | i |
| Cc1cc(NC(=O)CSc2nnc(Cc3cccn3C)n2CCc2ccccc2)no1 | -0.3 | x |
| CCc1[nH]nc2c1C(c1ccncc1)C(C#N)=C(N)O2 (configuration not stated) | 1.0 | i |
| COCc1nnc(NC(=O)c2ccc(NC(C)=O)cc2)s1 | -0.5 | i |
| O=C(Cn1ncn2c(cc3ccccc32)c1=O)NCCC1=CCCCC1 | -1.8 | x |
| CC12CC(c3ccccc3O1)N(C(=O)c1ccco1)C(=O)N2c1ccccc1 (configuration not stated) | 1.4 | x |
| CCC(=O)N1CCc2cc(S(=O)(=O)CCC(=O)Nc3cccc(F)c3)ccc21 | -1.3 | x |
| CCOC(=O)N1CCC(NC(=O)c2cccc3c2C(=O)N(c2ccc(OC)cc2)C3)CC1 | -0.3 | x |
| CCOC(=O)CSc1nnc(-c2cccnc2)n1Cc1ccccc1 | 0.5 | i |
| COC(=O)Cn1c(=O)c2c(nc(Br)n2CC(=O)OC)n(C)c1=O | -1.1 | i |
| COc1ccccc1-c1cc(C(=O)Nc2ccc(F)cc2F)no1 | 0.9 | x |
| COc1ccc(CCNC(=O)c2cc3sc(Cl)cc3n2C)cc1OC | 3.7 | 33.9 |
| CCOC(=O)c1sc(=NC(=O)c2cccc(OC)c2)n(C)c1C | 0.2 | x |
| Cc1ccc(-n2ncc3c(=O)n(CC(=O)NCc4ccco4)cnc32)cc1 | 0.4 | i |
| Cn1c(C(=O)NCc2ccco2)cc2c(=O)[nH]c3ccccc3c21 | -1.0 | x |
| O=C(O)CCCn1c(=O)[nH]c2ccccc2c1=O | -0.1 | x |
| CC(=O)Nc1ccc(N=Cc2ccc[nH]2)cc1 | -0.7 | i |
| CC1CCc2nn(CC(=O)NCCN3CCCCC3C)cc2C1 (configuration not stated) | -2.0 | i |
| COCCCN=CC1=C(O)CC(C)(C)CC1=O | -1.2 | x |

Reprinted from the part before: 2 compounds; new compounds follow.
| mol | 26S disassembly | VCAM-1 rise |
| --- | --- | --- |
| CC1CCc2nn(CC(=O)NCCN3CCCCC3C)cc2C1 (configuration not stated) | -2.0 | i |
| COCCCN=CC1=C(O)CC(C)(C)CC1=O | -1.2 | x |
| Cc1cc(Nc2ccc(F)cc2F)n2nc(C)nc2n1 | 0.1 | x |
| COc1ccc(OC)c(S(=O)(=O)NCCC2=CCCCC2)c1 | 1.0 | i |
| O=C(NCCN1C(=O)C2C3C=CC(C3)C2C1=O)N1CCOCC1 (configuration not stated) | -2.1 | i |
| COc1cccc(-n2nnc3c(=O)n(Cc4ccccc4Cl)cnc32)c1 | 6.0 | x |
| CC(C)N1C(=O)C2C(C(=O)NC3CCCCC3)C3C=CC2(O3)C1C(=O)NC1CCCC1 (configuration not stated) | -0.2 | i |
| O=C(O)CN(c1ccccc1)C1SC(=O)NC1=O (configuration not stated) | -0.9 | i |
| CSc1ccc(-c2nc(CSCC(=O)N3CCOCC3)c(C)o2)cc1 | -1.4 | i |
| Cc1cnc(C(=O)Nc2nnc(C(C)C)s2)cn1 | 0.0 | i |
| O=C(Cn1cccc1)NC1CCCCCC1 | 1.4 | x |
| Cc1cccc(C(=O)N(C)c2nnc(-c3ccncc3)s2)c1 | -0.8 | i |
| CC1=C(C(=O)OC(C)C)C(c2cccc(F)c2)n2ncnc2N1 (configuration not stated) | 1.0 | i |
| O=C(CCS(=O)(=O)c1cccs1)Nc1ccc(C(=O)NCc2cccs2)cc1 | -1.4 | x |
| CCc1nc(C)cn1S(=O)(=O)c1cc(C)c(OC)cc1C | 1.2 | x |
| O=C1CCc2cc(S(=O)(=O)N3CCCC3C(=O)N3CCN(c4ccccc4F)CC3)ccc2N1 (configuration not stated) | 0.8 | x |
| c1ccc(CNc2nc3ccccc3n3cnnc23)nc1 | 2.6 | x |
| OCc1cn(-c2ccccc2)nc1-c1ccc2c(c1)OCCO2 | -1.9 | i |
| CSc1nnc2c(n1)OC(c1cccn1C)N(C(C)=O)c1ccccc1-2 (configuration not stated) | 0.7 | x |
| CC(C(=O)N1CCCCC1)n1ncn2cccc2c1=O (configuration not stated) | -1.6 | i |
| COc1ccc(-c2nc(CS(=O)CC(=O)NCCC3=CCCCC3)c(C)o2)cc1 (configuration not stated) | 0.9 | x |
| Cc1ccc(C)n1-c1ccc(N2CCOCC2)cc1 | -0.2 | i |
| CCCCOc1ccc(S(=O)(=O)Nc2cccnc2)cc1 | 3.0 | x |
| O=C(c1csc2ccccc12)n1cccn1 | -1.4 | i |
| Cn1nc(-c2ccc(Cl)cc2)c2cc(C(=O)NCc3ccco3)sc21 | 0.6 | x |
| C/C(Cl)=C\Cn1c(Nc2ccc(C)cc2)nc2c1c(=O)n(C)c(=O)n2C | 1.2 | i |
| COC(=O)CSc1nnc(CNC(=O)c2ccc(S(=O)(=O)N3CCCCC3)cc2)n1C | 2.0 | x |
| CC(C)Cc1nnc(NS(=O)(=O)c2ccc(Cl)cc2)s1 | 0.3 | i |
| Cc1ccc(-n2ncc3c(=O)n(CC(=O)NC4CCCCC4)cnc32)cc1C | -0.9 | i |
| COc1ccc2c(c1OC)C(=O)N1c3ccccc3COC21 (configuration not stated) | 3.4 | x |
| CCCCOc1ccc(-c2nnc(N)s2)cc1 | -1.9 | i |
| CCN1CCN(CCCNC(=O)C2CCCN(c3nnc(-n4cccc4)s3)C2)CC1 (configuration not stated) | -0.9 | x |
| CN(CCNC(=O)Cn1c(=O)sc2ccccc21)Cc1ccccc1 | -5.7 | x |
| Cc1c(C2Nc3ccccc3NC3=C2C(=O)CC(C)(C)C3)cnn1C (configuration not stated) | -2.5 | i |
| CC1(C)OC(=O)C(=CNc2ncccn2)C(=O)O1 | 1.0 | x |
| CC(=O)N1CCc2cc(C(=O)CN3CCN(c4ccccc4F)CC3)ccc21 | 3.8 | x |
| Cc1ccc(S(=O)(=O)CCC(=O)Nc2ccc3c(c2)OCO3)cc1 | -0.4 | i |
| O=C(Cn1ncc2c(=O)oc3ccccc3c21)N1CCCc2ccccc21 | -1.8 | x |
| CC(C)C(C(=O)Nc1ccc2c(c1)OCCO2)N1C(=O)c2ccccc2C1=O (configuration not stated) | 0.8 | i |
| CCOc1cc2[nH]c(=O)n(CCCN3CCCC3=O)c(=O)c2cc1OCC | -0.6 | x |
| CCOC(=O)CN1CC23C=CC(O2)C(C(=O)NC2CCCCCC2)C3C1=O (configuration not stated) | -2.5 | x |
| CCN(CC)CCC(=O)NC(C)(C)Cc1ccc(O)cc1 | -1.0 | x |
| Cc1ccc(C(c2nnnn2CCC(C)C)N2CCN(C)CC2)cc1 (configuration not stated) | -0.8 | i |
| Cc1nc2c(C(=O)NCCC3=CCCCC3)c[nH]n2c(=O)c1Cl | -0.3 | x |
| C=CCNc1nc(NC(C)(C)CO)nc(OCC)n1 | -0.6 | x |
| CCn1cc(C(=O)Nc2cc3c(cc2NC(C)=O)OCCO3)c(=O)c2ccc(C)nc21 | 0.1 | i |
| Cc1ccc(-c2noc(CCC(=O)NCc3ccc4c(c3)OCO4)n2)cc1 | 0.1 | x |
| CCOC(=O)c1ccc(Oc2nc(NC)nc(OC)n2)cc1 | -0.1 | i |
| COc1ccc(S(=O)(=O)N2CCN(C)CC2)c2ccccc12 | -1.7 | x |
| Cc1cc(C)n(-c2nc3ccccc3c3nc(C)nn23)n1 | -0.8 | x |
| CCCn1nnc2sc3c(c2c1=O)CCC(C)C3 (configuration not stated) | -0.9 | x |
| CCOC(=O)C1CCCN(C(=O)C2CCN(S(=O)(=O)N3CCC4(CC3)OCCO4)CC2)C1 (configuration not stated) | -0.3 | x |
| CN1CCc2nc(SCC(=O)Nc3ccc(F)cc3)c(C#N)cc2C1 | -0.1 | i |
| CN(C)c1ccc2c(c1)OC(N)=C(C#N)C2c1cccc(F)c1 (configuration not stated) | 2.6 | i |
| O=C(Nc1ccc2c(c1)OCO2)C(c1ccccc1)N1CCN(C(=O)c2ccco2)CC1 (configuration not stated) | 0.6 | x |
| O=C(Nc1ccccc1C(F)(F)F)c1cc(S(=O)(=O)N2CCC3(CC2)OCCO3)ccc1F | -1.0 | x |
| O=C(c1ccc(COc2ccccc2Cl)o1)N1CCN(Cc2ccc3c(c2)OCO3)CC1 | 0.3 | x |
| COc1ccc(NC(=O)CN2CCN(S(=O)(=O)c3ccc(C(C)C)cc3)CC2)cc1OC | -0.9 | x |
| COc1cccc(-c2cc(C(=O)Nc3cc(OC)c(OC)c(OC)c3)no2)c1 | 0.0 | i |
| Cc1nn(-c2ccccc2)c2sc(-c3n[nH]c(=S)o3)cc12 | 8.3 | x |
| COc1ccc(C2N(c3ccc(OC)cc3)C(=O)C3CCCN32)cc1 (configuration not stated) | -0.5 | x |

Bioassay records: PubChem, several laboratories
